Assay outcomes (PubChem)
RE007 growth inh – less growth of the S. pombe RE007 Vpr strain. S. pombe RE007 Vpr strain, BacTiter-Glo ATP luminescence, 24 h; control for the full effect not named in the record. Potency, µM (titrated, usually from 92.2 µM), without a hit: at the highest dose activity change, negative = less growth. actives 0.21% (n = 360,000); active = well fitted falling curve with a large enough effect; inconclusive = small, poorly fitted or top-dose-only effect; inactive = no such curve, though single readings can be large or run the other way;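 note: nearly all actives have a fitted effect of over 50% in size; the assay follows cell death caused by Vpr and the record does not say whether a fall means rescue or toxicity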
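Fission yeast strain RE007, carrying one chromosomally integrated HIV-1 vpr copy, was seeded at OD 0.01 in PMG+AL medium with 23 nL pinned compound. After 24 h at 30 °C and 99% humidity, viability was read by BacTiter-Glo luminescence.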
2A StopGo – lowers the luciferase signal of an FMDV 2A StopGo reporter; human cells with a luciferase reporter of 2A StopGo recoding; control for the full effect not named in the record; AID 1159524; actives 1.2% (n = 410,000); Potency, µM (top dose mostly 57.9 µM), for inactives: at the highest dose signal change, negative = less light; active = well fitted falling curve with a large enough effect; inconclusive = small, poorly fitted or top-dose-only effect; inactive = no such curve, though single readings can be large or run the other way; tested in HEK293T cells; note: nearly all actives have a fitted effect of over 45% in size; luciferase light after 4 h
* = called active by the depositor; u = inconclusive; [ ] = dose if it differs, or a comment. % is set by controls: 0 for no effect and ±100 for the full control effect; potency is the fitted concentration of half-maximal effect.

Results follow in this order: RE007 growth inh	2A StopGo
- CCOC(=O)[C@]12Cc3cc4c(cc3[C@H]1N(Cc1ccccc1)C(=O)c1ccccc12)OCO4
  6%	-29%
- O=C(NN=Cc1ccc(Cl)cc1Cl)c1ccccc1
  19%	54%[activator]
- CCNC(=O)C1(C)CCN1C(=O)Cc1ccc(C(C)C)cc1 (configuration not stated)
  6%	-3%
- COc1cc(NC(=O)C2CCN(S(=O)(=O)c3cccs3)CC2)c(C(=O)O)cc1OC
  8%	-15%
- C=C1CCN([C@@H](CC(C)C)C(=O)NN2CCOCC2)S(=O)(=O)c2ccccc21
  6%	-7%
- CC(C)(C)CN1C(N)=NC[C@@H]1Cc1ccccc1
  -5%	0%
- COc1ccc(-c2cnc3c(NC=O)cc(-c4ccccc4)cn23)cc1OC
  7%	u
- CCCCc1c(-c2ccccc2OC)ncn1CCc1ccccc1Cl
  -26%	35µM*
- COc1ccc([C@H]2CC(=O)C[C@@H](CCn3cc(CC4CCCC4)nn3)O2)cc1
  0%	-18%
- COCCNC(=O)c1cc2c(c(-c3cccc(-c4cc5ccccc5o4)c3)n1)[C@@H](CCO)N(S(=O)C(C)(C)C)C2 (some centres not stated)
  4%	7%

An excerpt from above in order of SMILES length, low to high:
Results follow in this order: RE007 growth inh	2A StopGo
- O=C(NN=Cc1ccc(Cl)cc1Cl)c1ccccc1
  19%	54%[activator]
- CCNC(=O)C1(C)CCN1C(=O)Cc1ccc(C(C)C)cc1 (configuration not stated)
  6%	-3%
- COc1cc(NC(=O)C2CCN(S(=O)(=O)c3cccs3)CC2)c(C(=O)O)cc1OC
  8%	-15%
- CCOC(=O)[C@]12Cc3cc4c(cc3[C@H]1N(Cc1ccccc1)C(=O)c1ccccc12)OCO4
  6%	-29%
- COCCNC(=O)c1cc2c(c(-c3cccc(-c4cc5ccccc5o4)c3)n1)[C@@H](CCO)N(S(=O)C(C)(C)C)C2 (some centres not stated)
  4%	7%

Entries of single compounds, quoted from the list. Order of screens: RE007 growth inh | 2A StopGo
Listed for `COc1ccc(-c2cnc3c(NC=O)cc(-c4ccccc4)cn23)cc1OC` → 7% | u
Listed for `COCCNC(=O)c1cc2c(c(-c3cccc(-c4cc5ccccc5o4)c3)n1)[C@@H](CCO)N(S(=O)C(C)(C)C)C2` (some centres not stated) → 4% | 7%
Listed for `COc1cc(NC(=O)C2CCN(S(=O)(=O)c3cccs3)CC2)c(C(=O)O)cc1OC` → 8% | -15%
Listed for `CCCCc1c(-c2ccccc2OC)ncn1CCc1ccccc1Cl` → -26% | 35µM*
Listed for `C=C1CCN([C@@H](CC(C)C)C(=O)NN2CCOCC2)S(=O)(=O)c2ccccc21` → 6% | -7%

New compounds follow
Results follow in this order: RE007 growth inh	2A StopGo
- Cc1cccc(NC(=O)CN2CCN(C(=O)c3cc(C4CC4)nn3-c3ccccc3)CC2)c1C
  10%	-11%
- CN(Cc1ccc2c(c1)CCCN2C)C(=O)[C@H]1O[C@@H](n2cnc3c(N)ncnc32)[C@H](O)[C@@H]1O
  -2%	-20%
- NNC(=O)Cc1cc(=O)[nH][nH]1
  21%	1%
- O=C(c1[nH]c(C(F)(F)F)nc1-c1ccccc1)N1CCN(c2ncccn2)CC1
  1%	-14%
- COc1cc(-c2cnc3c(NC=O)cc(-c4ccc(C)cc4)cn23)cc(OC)c1OC
  -8%	0%
- CC1(c2nc3ccccc3[nH]2)CCCC2=Nc3ccccc3CN21 (configuration not stated)
  -24%	-16%
- CC1(C(=O)NS(=O)(=O)c2ccc(C#N)cc2)CCN1C(=O)Cc1ccsc1 (configuration not stated)
  10%	4%
- CCc1nc2ccc(C(=O)NCc3ccc4c(c3)OCO4)cn2c1N(C)Cc1cccs1
  -13%	-15%
- Cc1nc2ccccn2c(=O)c1NC(=O)c1ccco1
  -1%	-9%
- COC(=O)[C@@]1(Sc2ccc(C)cc2)CC(=O)N(C(=O)c2ccccc2)[C@@H]1c1ccccc1
  15%	-25%

Next results:
Results follow in this order: RE007 growth inh	2A StopGo
- COc1ccc(N2CCN(CC(=O)Nc3ccccc3C(=O)NC(C)c3ccccc3)CC2)cc1 (configuration not stated)
  9%	u
- Clc1cccc(-c2nc3ccc(Cl)cn3c2Cc2ccsc2)c1
  -27%	18%
- Cc1nc(-c2ccc(F)cc2)c(CC(=O)N(C)CC(=O)Nc2cccc(F)c2)s1
  1%	-19%
- O=C(NCCN1CCC(n2c(=O)[nH]c3ccccc32)CC1)c1ccc(F)c(C(F)(F)F)c1
  2%	-28%
- Cc1ccc(C(=O)Nc2nc(C(N)Cc3ccc(C(F)(F)F)cc3)cs2)cc1 (configuration not stated)
  4%	-33%
- Cc1ccc(C(O)c2ncc(-c3ccc4ccccc4c3)[nH]2)cc1F (configuration not stated)
  u	33%[activator]
- CC1=C(C(=O)N(C)C)CC(CC(=O)NCCc2ccccn2)C(=O)N1Cc1ccccc1 (configuration not stated)
  -24%	-5%
- Cc1cc2c(cc1C)-n1nnnc1C(N1CCCC1)C(=O)N2 (configuration not stated)
  3%	-5%
- CSCCC(c1nc2ccccc2[nH]1)n1c(/C=C/c2ccc(F)c(F)c2)nc2ccccc21 (configuration not stated)
  0%	38%[activator]
- COc1cc(CN2C[C@@H](CO)O[C@@H](n3cnc4c(Nc5ccccc5)ncnc43)C2)cc(OC)c1OC
  -7%	u

(continued)
Results follow in this order: RE007 growth inh	2A StopGo
- CCOC(=O)CC1C(=O)NCCN1C(=S)NC(=O)c1ccc(C)c(Br)c1 (configuration not stated)
  21%	-10%
- CNc1cccc(-c2ccc(C(=O)N3CCOCC3)cc2)n1
  5%[18.4 µM]	39%[activator]
- CN(C)c1cccc(CNC(=O)c2csc([C@@H]3O[C@H](CO)[C@@H](O)[C@H]3O)n2)c1
  4%	-25%
- C[C@@H]1CN([C@H](C)CO)C(=O)CCCn2nncc2CO[C@H]1CN(C)C(=O)c1cc(-c2ccccc2)on1
  -5%	-22%
- CCCc1c(-c2cccc(Br)c2)ncn1Cc1cccc(-c2ccccc2)c1
  -10%	-29%
- Cc1cccc(C)c1NC(=O)C(c1ccccc1)N1CCC(Cc2ccccc2)CC1 (configuration not stated)
  -13%	-15%
- O=C(NCc1cccnc1)c1cc(C2CCCCN2C(=O)c2ccc3c(c2)CCO3)on1 (configuration not stated)
  8%	-19%
- COc1cc(NC(=O)Nc2nnc([C@H]3C[C@H](O)[C@@H](CO)O3)s2)cc(OC)c1
  2%	7%
- CN(Cc1ccccc1)C(=O)c1cccc(NC(=O)Cc2ccc(NC(=O)C3CCN(C(=O)C4CC4)CC3)cc2)c1
  -10%	-6%
- COc1ccc(C(C)(NC(C)=O)c2nc(-c3ccc(F)cc3OC)cs2)cc1 (configuration not stated)
  11%	-22%

(list continues)
Results follow in this order: RE007 growth inh	2A StopGo
- COc1ccc(C=NCCc2ccc(OC)c(OC)c2)cc1OC
  9%	-1%
- CCOC(=O)C1=C(C)OC(=Cc2ccccc2)C1=O
  1%	14%
- Cc1ccc(NC(=O)c2ncn(CCCNCC3CCCCC3)n2)cc1C
  9%	0%
- COCCNC(=O)C1(C)CCCN(C(=O)c2cccc3ccccc23)C1 (configuration not stated)
  -2%	-14%
- C/C(=N/NS(=O)(=O)c1ccc(Cl)cc1)c1ccc2c(c1)OCO2
  -10%	49%[activator]
- Cc1cc(C)n2cc(CSc3nnc(-c4ccccc4)c(-c4ccccc4)n3)nc2n1
  0%	28µM*
- CNc1ccc(Cl)cc1S(=O)(=O)c1ccccc1[N+](=O)[O-]
  -1%[18.4 µM]	4%
- OC(c1ccc(F)c(F)c1)c1ncc(-c2cccc(C(F)(F)F)c2)[nH]1 (configuration not stated)
  3%[18.4 µM]	22%
- CCOC(=O)C1(c2ccccc2)SC(C(=O)OCC)(c2ccccc2)S1 (configuration not stated)
  1%	-12%
- CC(C)C[C@H]1CN(CCCC[C@@H]2CNC(=O)C(=O)N2CC2CCCCC2)C(=O)C(=O)N1CCc1ccc(O)cc1
  -14%	-13%

Remaining list, next part.
Results follow in this order: RE007 growth inh	2A StopGo
- CN(Cc1ccccc1)C(=O)c1ccc(NC(=O)Cc2ccc(NC(=O)C3CCCN(S(=O)(=O)c4cccc([N+](=O)[O-])c4)C3)cc2)cc1 (configuration not stated)
  0%	-29%
- COc1ccc(OC)c(C=NN=Cc2cc(OC)ccc2OC)c1
  -10%	-21%
- Nc1[nH]c(C(=O)c2ccccc2)c(-c2ccc(Cl)cc2)c1C(=O)NCc1ccccc1
  62%	-23%
- COC(=O)c1ccc(N2C(c3ccsc3)=Cc3cc4c(cc3C2CC(=O)c2ccco2)OCO4)cc1 (configuration not stated)
  -19%	5%
- CC(C)C[C@@H]1O[C@H](C(C)C)Cc2[nH][nH]c(=O)c21
  -1%	-15%
- CC1(C(=O)NS(=O)(=O)c2cccs2)CCN1C(=O)Cc1ccc(Cl)cc1Cl (configuration not stated)
  -8%[18.4 µM]	-16%
- O=C(NCc1ccc(F)cc1)C1CCCN1S(=O)(=O)c1ccc(F)cc1 (configuration not stated)
  13%	-8%
- O=C(Nc1ccccc1)c1ccccc1Br
  6%	-3%
- Cn1c(=O)c2c(ncn2CC(=O)OCC(=O)Nc2cccc(C#N)c2)n(C)c1=O
  5%	1%
- CCc1nc2c(OCCOC)cccn2c1N(C)C(=O)Nc1ccccc1OC
  1%	-18%

Other records follow.
Results follow in this order: RE007 growth inh	2A StopGo
- CC(=O)NCCNc1nc2cc(-c3cccc(Cl)c3)sc2c(=O)n1C
  -9%	-25%
- Cc1nc(C(F)(F)F)ccc1C(=O)N1CCCC1(C)C(=O)NCC(C)C (configuration not stated)
  -22%	-4%
- N#Cc1ccc(NC(=S)NC(=O)C2CC2)cc1
  -10%	31%[activator]
- CC1(C)C=Cc2cc(-c3coc4cc(O)cc(O)c4c3=O)cc(O)c2O1
  8%	24%
- CC1(c2nc3ccccc3[nH]2)CCC(=O)N1Cc1cccs1 (configuration not stated)
  -7%	-20%
- N#Cc1ccc(-c2nc3c(Cl)cc(C(F)(F)F)cn3c2Cc2ccsc2)cc1
  2%	-7%
- CC(C)c1ccc(NC(=O)C2Cc3c(-c4ccco4)ccnc3O2)cc1 (configuration not stated)
  2%[18.4 µM]	-6%
- CN(Cc1ccccc1)C(=O)[C@@H]1CCCN1C(=O)[C@@H]1CCCN1C(=O)c1cccc(Cl)c1
  -4%	-27%
- CC(C)c1ccc(S(=O)(=O)N2CCN(C(=O)CCc3nc4ccccc4c(=O)[nH]3)CC2)cc1
  5%	-25%
- CCOc1ccc(-c2cc(C(=O)NCc3ccccc3)[nH]n2)c(C)c1
  2%	36%[activator]

Further structures follow:
Results follow in this order: RE007 growth inh	2A StopGo
- OC[C@@H]1CN(Cc2cccc(C(F)(F)F)c2)C[C@H](n2cnc3c(NCc4ccncc4)ncnc32)O1
  -2%	-4%
- COc1ccc(C(=O)CC(c2ccc(OC)c(OC)c2)c2c(O)c3ccccc3oc2=O)cc1OC (configuration not stated)
  2%	12%
- CC[C@]1(C(=O)OC)[C@H]2C(=O)N(C)C(=O)[C@H]2[C@H]2CN=C(SC)N21
  1%	-14%
- OC(c1ccc(F)c(F)c1)c1nc(-c2csc3ccccc23)cs1 (configuration not stated)
  u	9%
- Cc1ccc(NC(=O)C2(C)CCN2C(=O)Cc2ccc(-c3ccccc3)cc2)cc1 (configuration not stated)
  7%[18.4 µM]	u
- O=C(NCC1CCOCC1)c1ccc(-c2ccc(F)c(F)c2)c2ccoc12
  -5%[18.4 µM]	u
- COc1c[nH]n(-c2ccccc2)c(=O)c1=O
  -28%	-13%
- CC1(C(=O)Nc2cnc3ccccc3c2)CCN1Cc1ccccc1OC(F)F (configuration not stated)
  -13%	u
- C[C@@H]1CN([C@@H](C)CO)C(=O)CCCn2nncc2CO[C@@H]1CN(C)C(=O)Cc1ccccc1
  -14%	0%
- CCc1nc2ccc(C(=O)Nc3ccc(C(=O)N(C)C)cc3)cn2c1N(C)CCCc1ccccc1
  -16%[18.4 µM]	-6%

(next part)
Results follow in this order: RE007 growth inh	2A StopGo
- CC(C)(C)OC(=O)N1CCc2onc(-c3ccc(Cl)cc3)c2C1=O
  30%	-12%
- O=[N+]([O-])c1nccn1CC(O)CO (configuration not stated)
  5%	-21%
- O=C1NCN(c2ccccc2)C12CCN(C(c1cccc3ccccc13)c1nnnn1-c1ccc3c(c1)OCCO3)CC2 (configuration not stated)
  1%	0%
- COCCNC(=O)C1(C)CCCN(C(=O)c2cc(OC)c(OC)c(OC)c2)C1 (configuration not stated)
  3%	-1%
- COc1ccc(N2CCN(C(=O)CCCCCn3c(=S)[nH]c4ccc(N5CCOCC5)cc4c3=O)CC2)cc1
  0%	u
- C#CCN(C[C@@H]1[C@@H](OC(=O)NCc2ccccc2F)[C@@H](OC(=O)NCc2ccccc2F)CN(C(=O)OC(C)C)N1C(=O)OC(C)C)S(=O)(=O)c1ccc(C)cc1
  9%	0%
- FC(F)(F)c1ccccc1Cc1c(C2CCCCC2)nc2c3ccccc3ccn12
  u	-9%
- CC(C)c1cccc(-c2csc(C(O)c3ccc(F)cc3)n2)c1 (configuration not stated)
  u	1%
- C=CCn1c(COc2cccc(C)c2)nnc1SCC(=O)c1c(N)n(C)c(=O)n(C)c1=O
  6%	0%
- CCNC(=O)C1(C)CCN(C(=O)c2cccnc2SC)C1 (configuration not stated)
  -14%	-17%
- O=S(=O)(c1ccccc1)N1CCN(Cc2nnc(-c3ccccc3)o2)CC1
  1%	0%

An excerpt; count on the stated rates, not on these rows.
